# TRPML1 blocker: inhibitors of human TRPML1 channel. TRPML1-inducible cells, Ca2+ dye fluorescence, FDSS; active compounds read low; inhibition of EC80 agonist-evoked calcium signal. activity change, negative = inhibition, % (test concentration not listed). AID 624415. 390,000 compounds, 0.02% hits; in the data active means activity change below about -50%; inconclusive means about -30% to -50%; inactive means above about -30%;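 note: stimulus is agonist 54-4 at its EC80 concentration; % is set by controls: 0 for no effect and ±100 for the full control effect; compound concentration not given in the record; the text of the record puts the active cut at -80%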
#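 TRPML1-DL cells, Tet-induced overnight (~16 h, 37 °C) at 1,500 cells/well, were loaded with Ca8 no-wash dye plus quencher for 45-90 min at room temperature. Compounds were pinned during FDSS kinetic reading; agonist 54-4 at EC80 (4 uM final) then added.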
# PINK1 expr mod: changes PINK1 expression | PINK1 immunofluorescence, high-content cytometry, 24 h | Potency, µM (highest dose often 76.6 µM), without a hit: top-dose activation (PINK1 increase), usual class: activators | 410,000 compounds, 0.2% hits; active = well fitted activation curve with a large enough effect; inconclusive = small, poorly fitted or top-dose-only effect; inactive = flat fitted curve, though single readings scatter; cell line not stated here;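 note: potency is the fitted concentration of half-maximal effect; % of control where 0% means no effect; nearly all actives have a fitted effect of over 65% in size; a mitochondrial uncoupler was the plate control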
#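 PINK1 protein level read as immunofluorescence by microplate cytometer in a fixed, stained stable cell line after 24 h exposure to five compound concentrations, with CCCP as control.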
# Menin MLL FP FL: inhibitors of human menin-MLL interaction, wild-type MLL peptide; Fluorescence polarization, fluorescein-MLL peptide displacement from menin; FP activity change, % at 61.4 µM; 290,000 tested, under 10 active; AID 1766; inconclusive = falling polarisation curve, or a change in total fluorescence; inactive = total fluorescence flat and polarisation flat or rising; no compound was filed as active; the % refers to the polarisation; negative = inhibition;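 note: % of control where 0% means no effect; inhibitors lower the polarisation; unlabelled MLL peptide was the positive control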
# TRPML1 agonist: activates the human TRPML1 channel. TRPML1-expressing cells, Ca2+ dye fluorescence, FDSS; host cell line not named in the record; reference of the full effect not given here. activation, % (concentration not given with the values). 410,000 compounds, 0.12% hits. AID 624414; in the data active = activation above about 50%; inconclusive = about 30% to 50%; inactive = below about 30%; note: 0% is about no effect; the text of the record puts the active cut at 80%
#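 TRPML1-DL cells, Tet-induced overnight (~16 h, 37 degrees C), loaded 45-90 min at room temperature with Ca8 no-wash calcium dye plus quencher. FDSS fluorescence: 10 s baseline, compound pin-transfer, 110 s agonist read, then EC80 54-4 (4uM final) and 110 s antagonist read.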
# Sfp inh: Sfp phosphopantetheinyl transferase inhibition | Q9F4F7 | Biochemical Sfp PPTase activity, qHTS | Potency, µM, for the others: max response, negative = inhibition, actives largely listed as inhibitors | 310,000 compounds, 3.5% hits | AID 1490; active = well fitted inhibition curve with a large enough effect; inconclusive = small, poorly fitted or top-dose-only effect, or another doubt; inactive = no such curve, though single readings can be large or run the other way;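 note: the enzyme is Sfp with the accession as filed and its product quenches rhodamine fluorescence; potency is the fitted concentration of half-maximal effect; 0% = enzyme reaction without inhibitor and -100% = no enzyme wells; top concentration of the series not given in the record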
#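 With Hepes-Na pH 7.6 buffer containing 10 mM MgCl2, Sfp (15 nM) modified BHQ-2-YbbR (12.5 uM) using rhodamine-CoA (5 uM). Two reads 30 minutes apart at 525/598 nm yielded each well's rate.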
# TRPV1 PAM: enhances activation of the human vanilloid receptor TRPV1. AID 540277. TRPV1-expressing cells, Fluo-8 calcium influx, capsaicin EC20 potentiation; host cell line not named in the record; control for the full effect not named in the record. potentiation, % at 8.33 µM. 320,000 compounds, 0.02% hits. Q8NER1; active means potentiation above 80%; inconclusive means 30% to 80%; inactive means below 30%; note: 0% is about no effect
# Target sequence (Q8NER1 whole entry, looked up): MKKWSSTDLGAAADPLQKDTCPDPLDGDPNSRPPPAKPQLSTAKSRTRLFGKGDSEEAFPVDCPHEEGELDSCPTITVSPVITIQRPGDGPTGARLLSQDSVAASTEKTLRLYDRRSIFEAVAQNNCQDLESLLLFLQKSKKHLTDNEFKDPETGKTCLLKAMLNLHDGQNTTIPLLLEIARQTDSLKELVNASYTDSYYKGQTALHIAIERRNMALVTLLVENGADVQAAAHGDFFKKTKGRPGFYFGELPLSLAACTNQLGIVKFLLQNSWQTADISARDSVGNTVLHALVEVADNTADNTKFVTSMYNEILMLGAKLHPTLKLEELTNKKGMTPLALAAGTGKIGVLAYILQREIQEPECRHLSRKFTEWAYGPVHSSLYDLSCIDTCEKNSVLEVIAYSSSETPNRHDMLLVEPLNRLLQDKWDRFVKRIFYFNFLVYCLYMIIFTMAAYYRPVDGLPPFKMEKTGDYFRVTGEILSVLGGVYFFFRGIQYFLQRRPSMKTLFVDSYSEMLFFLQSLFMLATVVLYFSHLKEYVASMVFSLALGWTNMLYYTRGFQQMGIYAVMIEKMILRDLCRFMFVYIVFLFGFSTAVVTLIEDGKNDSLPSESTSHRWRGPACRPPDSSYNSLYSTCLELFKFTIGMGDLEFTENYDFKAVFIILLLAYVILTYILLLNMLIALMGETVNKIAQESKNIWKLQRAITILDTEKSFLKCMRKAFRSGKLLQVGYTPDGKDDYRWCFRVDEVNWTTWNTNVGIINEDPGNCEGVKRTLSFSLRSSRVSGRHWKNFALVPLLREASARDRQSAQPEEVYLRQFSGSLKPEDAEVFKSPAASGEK
#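 Fluo-8 calcium influx in TRPV1-expressing cells, kinetic read (ex 480/em 520 nm). Compound added and read 3 min for agonist activity, followed by capsaicin at EC20 final and 2 min further read for enhancement.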
# ClpP mod: qHTS Assay for Activators of ClpP; AID 651965, 2013; ATP-dependent Clp protease proteolytic subunit (Bacillus subtilis (strain 168)), P80244; 340,000 compounds, 1.9% hits; purified B. subtilis ClpP, FRET peptide cleavage, 20 min; Potency, µM (top dose mostly 57.5 µM), inactives show at the top dose activity change, negative = active; active = well fitted falling curve with a large enough effect; inconclusive = small, poorly fitted or top-dose-only effect; inactive = no such curve, though single readings can be large or run the other way; note: potency is the fitted concentration of half-maximal effect; the source files actives as falling curves though it sought activators and does not explain the sign; nearly all actives have a fitted effect of over 65% in size; many hits overshoot -100%
# Target sequence (P80244 whole entry, looked up): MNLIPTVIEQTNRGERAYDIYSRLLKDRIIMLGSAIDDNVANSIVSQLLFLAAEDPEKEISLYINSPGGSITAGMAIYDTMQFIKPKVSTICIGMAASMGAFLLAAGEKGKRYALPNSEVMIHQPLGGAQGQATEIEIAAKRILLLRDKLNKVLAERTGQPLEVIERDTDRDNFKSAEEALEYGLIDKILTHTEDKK
#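 FRET quenching reversal measured ClpP activation: 10 microg/mL B. subtilis ClpP at pH 8 with the FRET-FV decapeptide, read at 430 nm after 320 nm excitation. The 20-min minus 0-min signal was scaled between DMSO/no-enzyme wells and ADEP (5.8 microM final).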
# The depositor's hits bear a star; ? = inconclusive; . = no result given; & = joins results of further samples; [ ] = dose if it differs, or a comment.
smiles	TRPML1 blocker	PINK1 expr mod	Menin MLL FP FL	TRPML1 agonist	Sfp inh	TRPV1 PAM	ClpP mod
O=C(NC(c1ccc(F)cc1)c1ccc2ccccc2n1)C1CCN(CCOc2ccc(Cl)cc2Cl)CC1 (stereo not given)	.	-1.1%	.	0.1	.	.	-16%
O=C(NC1CCCc2ccccc21)c1ccc2c(c1)sc1nc(-c3ccccc3)cn12 (stereo not given)	-5	4.8%	.	0.6	.	.	?
COc1ccccc1NC(=S)N1CC(C)OC(C)C1 (stereo not given)	15	2.0%	-1.3	0.5	-4%	8	-0.6%
Cc1ccc(C(C)C)c(OCc2ccc(-c3nnco3)cc2)c1	6	4.2%	1.1	0.7	50µM*	7	-1.1%
COc1cccc(CNC(=O)COC(=O)c2cccc(S(=O)(=O)N3CCCC3)c2)c1	-2	0.7%	.	-0.2	.	-8	0.6%
Cc1ccc2nc(/C(C#N)=C/c3ccc(O)c(O)c3)[nH]c2c1	-8	4.2%	?	13	-25%	6	.
C/C=C/c1ccc(OCC(O)CN2CCCCC2CC)c(OC)c1 (stereo not given)	4	-0.6%	-5.9	-0.8	0%	0	.
COc1ccc2c(c1)C(=NN)c1cc(OC)ccc1-2	-7	1.1%[38.3 µM]	2.5	0.7	8%	7	0.3%
O=C(Cn1c2ccccc2c(=O)c2ccccc21)N/N=C/c1cc([N+](=O)[O-])ccc1N1CCCCCC1	-3	?	4.5	0.4	11µM*	6	?
O=C(N/N=C/c1cccc([N+](=O)[O-])c1)c1cnccn1	-24	1.5%	-0.2	0.4	-5%	-1	0.8%
CCOC(=O)c1c(C)[nH]c(C)c1S(=O)(=O)NC(CC)CN1CCOCC1 (stereo not given)	12	1.0%	-0.7	-0.4	24%	4	0.5%
CCCCCn1c(=O)[nH]c2cc(C(=O)Nc3ccc(OC)cc3)ccc2c1=O	-2	3.3%	-0.4	-0.4	6%	-5	?
O=c1c2ccccc2n(Cc2ccc(Cl)cc2)c(=O)n1Cc1ccco1	-8	2.3%	2.4	1.2	4%	19	-26%
COc1ccc(C)cc1-n1c(SCC(=O)Nc2cccc(C(=O)O)c2)nc2ccccc2c1=O	.	0.5%	1.0	.	16%	6	-2.6%
Cc1cc(Cl)ccc1OCC(=O)NCCCCc1ccccc1	0	20%	0.5	1.9	-18%	-3	-0.9%
CSc1ccccc1Sc1cc(C(=O)O)c2ccccc2n1	-2	0.7%	0.8	-0.4	-22%	-4	-3.3%
CCOC(=O)C1=CN(Cc2cccc(F)c2)S(=O)(=O)N(C)C1c1ccc2ccccc2c1 (stereo not given)	4	1.7%	.	1.9	.	.	-2.3%
O=C(NCc1cccnc1)c1cc(C2CCCN(C(=O)CCCc3ccccc3)C2)on1 (stereo not given)	.	-0.4%	.	-0.3	.	.	1.8%
COc1ccc(Nc2cc(=O)n(-c3ccccc3)c3c2c(=O)n(C)c(=O)n3C)cc1	-21	21%	6.3	-0.9	26%	-26	.
O=C(Cc1c(Cl)cccc1Cl)OCC(=O)N1CCN(C(=O)c2ccco2)CC1	26	0.7%	4.0	-0.6	-7%	-19	.
CCOc1ccc(-c2nnc(NC(=O)Cc3ccc(OC)cc3)o2)cc1	10	3.1%	.	-0.5	21%	-26	.
O=C(Nc1ccc(Br)c(Cl)c1)c1ccco1	24	0.4%	-0.4	-0.5	9%	25	0.2%
Cc1ccc(C)c(-n2c(CCC(=O)O)ccc2-c2ccc(Cl)cc2)c1	20	1.0%	.	0.9	.	.	-19%
Cc1cc(OC(=O)c2cccc([N+](=O)[O-])c2)c(C)cc1CN1CCOCC1	-5	1.8%	-4.4	-0.2	-8%	-13	-1.3%

# 3 entries from above, arranged by the value under TRPML1 blocker, ascending:
Molecule	TRPML1 blocker
O=C(N/N=C/c1cccc([N+](=O)[O-])c1)c1cnccn1	-24
O=C(Nc1ccc(Br)c(Cl)c1)c1ccco1	24
O=C(Cc1c(Cl)cccc1Cl)OCC(=O)N1CCN(C(=O)c2ccco2)CC1	26

# Carrying on:
smiles	TRPML1 blocker	PINK1 expr mod	Menin MLL FP FL	TRPML1 agonist	Sfp inh	TRPV1 PAM	ClpP mod
Cc1ccc(-n2c(SCc3ccccc3C)nc3[nH]ncc3c2=O)cc1C	8	0.2%	.	2.8	.	.	-4.4%
Cc1ccc(C)c(NC(=O)CSc2c3c(nc4ccc(Cl)cc24)CCCC3)c1	1	1.9%	.	-0.6	.	.	1.5%
CCN1CCN(c2ccc(S(=O)(=O)N3CCCCC3)cc2NC(=O)CCNC(C)=O)CC1	10	-5.4%	.	0.0	.	.	-1.5%
CCc1c(O)nc(SCC(=O)N(CC)CC)[nH]c1=O	4	0.1%	1.2	-0.1	26%	-3	.
CCOc1ccc(NC(=O)CCSc2nc3c(c(CC)c2C#N)C(=O)CC(C)(C)C3)cc1	-9	0.0%	-0.9	0.1	13%	-6	-2.0%
O=C(Nc1ccc(N2CCN(C(=O)c3ccco3)CC2)c(Cl)c1)c1cccs1	-14	1.5%	4.0	0.6	8%	-6	-6.1%
CSCCC(=O)N1CCCC(CO)(CCCc2ccccc2)C1 (stereo not given)	22	-0.9%	0.8	0.4	4%	-7	.
COc1cccc([C@@H]2Oc3ccc(OC)cc3C(=O)[C@H]2OC(=O)Nc2cc(OC)c(OC)c(OC)c2)c1	5	-0.5%	0.5&-0.2	0.9	-6%&7%	7	-17%
O=C(Nc1ccc(F)cc1F)N1CCCCC1c1cccnc1 (stereo not given)	9	-1.5%	0.7	1.1	4%	4	1.4%
Cc1cc(C)nc(NS(=O)(=O)c2ccc(NC(=S)NC(=O)c3ccco3)cc2)n1	2	0.5%	0.7	0.5	?	2	.
COc1ccc(Oc2c(C)oc3c(CN4CCOCC4)c(O)ccc3c2=O)cc1	-7	0.0%	3.2	1.0	21%	6	32µM*
COc1ccc(CC(=O)OCCc2cc3cc(OC)c(OC)cc3c(=O)o2)cc1	-8	-0.2%	.	0.2	.	1	-19%
O=C(NCc1ccccc1Cl)C(=O)c1cn(CC(=O)N2CCOCC2)c2ccccc12	-8	1.6%	.	0.8	4%	28	.
N#Cc1ccc(CSCC(=O)NN=C2CCCC2)cc1	22	-1.7%	1.5	0.1	6%	8	.
Cc1ccc(/C(O)=C2\C(=O)C(=O)N(CCN(C)C)C2c2ccccc2F)cc1 (stereo not given)	-8	-0.9%[38.3 µM]	-1.5	0.0	20%	8	-2.6%
CN(C)C(CNS(=O)(=O)c1ccc(Cl)cc1F)c1ccco1 (stereo not given)	5	-0.5%	.	0.8	.	.	0.5%
Cc1c(C(=O)N2CCCC2)oc2c1-c1nn(CC(=O)NCCCN3CCCCC3)cc1CC2	1	-1.3%	.	0.1	2%	9	-2.3%
Cc1ccc(S(=O)(=O)N2CCCc3cc(NS(=O)(=O)c4ccc(F)c(C)c4)ccc32)cc1	60	24%	.	-0.1	.	.	-3.8%
CC(C)C(c1nnnn1C1CCCC1)N1CCOCC1 (stereo not given)	-2	-1.5%	3.9	-0.3	10%	10	0.6%
C[C@H](NC(=O)[C@@H]1Cc2ccccc2CN1)C(=O)Nc1ccc2c(c1)OCCO2	2	1.3%	.	0.0	-3%	-1	-2.5%
COc1cc(OC)c2c(N)c(C#N)c(C(F)(F)C(F)(F)F)nc2c1	22	-2.1%	2.5	-0.6	3%	4	-19%
COc1ccc2oc(=N)c(-c3nnc4n3CCCCC4)cc2c1	-8	.	-0.6	-0.5	6%	-2	-19%
Cc1ccccc1NC(=O)Cc1nc(COC(=O)Cc2ccccc2F)cs1	-5	1.5%	.	0.6	.	-6	-1.6%
CN(CC(=O)Nc1ccc(Cl)c(C(F)(F)F)c1)C(=O)C1CC(=O)N(c2ccc3c(c2)OCCO3)C1 (stereo not given)	-5	0.7%	.	-0.4	.	.	0.2%
c1ccc(CCNc2nc3ccccc3s2)cc1	0	3.1%[38.3 µM]	3.4	4.7	-5%	10	-1.2%
CCOc1ccc(C(=O)OCn2nnc3ccccc3c2=O)cc1OC	20	3.0%[38.3 µM]	7.7	0.5	2%	-3	-1.6%
Cc1ccc(C)c(NC(=O)c2cc(S(=O)(=O)N3CCCCCC3)ccc2F)c1	7	3.1%	.	0.0	.	.	-0.6%
CCc1ccc(OCCCOc2ccc(C=O)cc2)cc1	46	-0.4%[38.3 µM]	1.2	0.8	-5%	-13	-0.1%
O=C(CCNC(=O)c1ccccc1Cl)Nc1ccc(S(=O)(=O)N2CCOCC2)cc1	9	0.3%	.	-0.6	.	.	0.2%
CN(C)c1ccc(/C=C/c2ccnc3ccccc23)cc1	.	8.2%	.	20	.	.	1.3%
CCOc1ccc(NC(=O)C(=O)N/N=C\c2ccc(CNS(=O)(=O)c3ccccc3)o2)cc1	0	19%	3.9	0.0	-13%	4	-3.2%
Cc1ccc(-c2nc(N)s[n+]2-c2ccccc2)cc1	3	-0.9%	3.0	-0.7	?	6	0.7%
O=C(NCC(=O)N1CCOCC1)OCc1ccccc1	3	0.3%	2.1	0.6	6%	-8	1.6%
O=C(CSc1nnc(-c2cccnc2)s1)Nc1ccc(C(=O)O)cc1	12	-2.2%	-0.3	0.1	-18%	-2	-14%
CSCCC(NC(=O)c1ccco1)C(=O)NCC(c1ccccc1)N(C)C (stereo not given)	-18	3.1%	.	1.1	.	5	-0.5%
CC(NC(=O)/C=C/c1ccco1)c1nc2ccccc2n1Cc1cccc(Cl)c1 (stereo not given)	9	1.6%	4.8	0.6	28µM*	-7	-2.5%
CCOCc1c(C(=O)OCC(=O)NCc2ccc(F)cc2)oc2ccccc12	-5	3.0%	.	-0.3	.	-17	-2.7%
COc1ccc(-c2c(C)n([O-])c3c([n+]2=O)CCC3)cc1OC	-12	0.5%	4.8	-0.7	12%	2	0.2%
COc1ccc(S(=O)(=O)N2CCC(C(=O)NC3CC3)CC2)cc1C	-9	3.3%	1.7	-0.5	16%	-27	.
CCOc1ccc(CCNC(=O)c2nnc(CS(=O)(=O)c3ccccc3)o2)cc1OCC	-25	1.3%	-4.6	1.0	2%	1	.

# Compound activity from PubChem BioAssay.

# Outcome played no part in choosing rows (roughly 4.4% active in at least one column).
